Assay outcomes (PubChem)
SARS PLpro yeast – inhibitors of SARS-CoV papain-like protease in yeast | S. cerevisiae expressing SARS-CoV PLpro, growth rescue; control for the full effect not named in the record | Potency, µM (series often up to 32.9 µM), without a hit: at the highest dose activity, positive = growth rescue | 330,000 compounds, 0.19% hits | AID 485353; active means well fitted rising curve with a large enough effect; inconclusive means small, poorly fitted or top-dose-only effect; inactive means no such curve, though single readings can be large or run the other way; note: 0% is about no effect; nearly all actives have a fitted effect of over 55% in size; growth read by luminescence after 48 h
NS1 function inh – influenza NS1 inhibition. S. cerevisiae slowed by influenza A NS1, growth recovery by OD600. Potency, µM (doses to about 46.1 µM), for inactives: at the top dose activity, positive = more growth. 270,000 compounds, 0.4% hits; active means well fitted rising curve with a large enough effect; inconclusive means small, poorly fitted or top-dose-only effect; inactive means no such curve, though single readings can be large or run the other way; note: nearly all actives have a fitted effect of over 50% in size
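Read-out: OD600 growth recovery of NS1-expressing budding yeast. Cells grown overnight at 30C in -URA glucose medium, washed, resuspended and diluted 1:100 in 2% galactose assay medium, pH 6.0. Same strain lacking NS1 served as positive control.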
Cruzain noTriton – blocks cruzain activity in detergent-free assay; P25779; purified cruzain, Z-FR-AMC fluorescence, no detergent; Potency, µM, for the others: max response, negative = inhibition, hits mostly inhibitors; 200,000 compounds, 2.3% hits;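 note: plate controls were enzyme without inhibitor for no effect and buffer without enzyme for full effect; nearly all actives have a fitted effect of over 40% in size; top concentration of the series not given in the record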
Target sequence (P25779 123-467 limits assumed): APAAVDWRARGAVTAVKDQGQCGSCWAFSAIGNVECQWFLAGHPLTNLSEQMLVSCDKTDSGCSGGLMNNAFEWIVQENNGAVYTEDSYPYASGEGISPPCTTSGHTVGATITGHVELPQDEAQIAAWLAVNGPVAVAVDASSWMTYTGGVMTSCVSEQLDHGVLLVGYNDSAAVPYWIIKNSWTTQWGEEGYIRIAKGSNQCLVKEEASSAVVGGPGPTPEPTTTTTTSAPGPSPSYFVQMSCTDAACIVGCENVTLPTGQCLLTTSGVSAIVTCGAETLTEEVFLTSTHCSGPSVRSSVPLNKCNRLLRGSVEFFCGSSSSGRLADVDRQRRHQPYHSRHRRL
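Detergent-free condition (0.00005% Triton X-100) in acetate buffer pH 5.5 with DTT. 1.5 nM enzyme and compound were pre-mixed 15 min, then 2 uM Z-FR-AMC substrate added; reaction progress from fluorescence change between first and third reads (60 s).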
Lassa entry inh – inhibitors of Lassa virus binding or cell entry; Lassa virus pseudotype entry inhibition, cell reporter; control for the full effect not named in the record; Potency, µM (highest dose often 37.9 µM), without a hit: top-dose activity change, negative = inhibition, most hits filed as inhibitors; 300,000 compounds, 1.2% hits; AID 540256; active means well fitted inhibition curve with a large enough effect; inconclusive means small, poorly fitted or top-dose-only effect, or effect the other way; inactive means flat fitted curve, though single readings scatter; tested in HEK293 cells; note: % is set by controls: 0 for no effect and ±100 for the full control effect; nearly all actives have a fitted effect of over 50% in size; luciferase read-out
RE007 growth inh – less growth of the S. pombe RE007 Vpr strain. 360,000 compounds, 0.21% hits. AID 651644. S. pombe RE007 Vpr strain, BacTiter-Glo ATP luminescence, 24 h; control for the full effect not named in the record. Potency, µM (titrated, usually from 92.2 µM), for inactives: at the highest dose activity change, negative = less growth; active = well fitted falling curve with a large enough effect; inconclusive = small, poorly fitted or top-dose-only effect; inactive = no such curve, though single readings can be large or run the other way;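 note: % is set by controls: 0 for no effect and ±100 for the full control effect; nearly all actives have a fitted effect of over 50% in size; the assay follows cell death caused by Vpr and the record does not say whether a fall means rescue or toxicity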
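Fission yeast RE007 carrying one integrated HIV-1 vpr copy, seeded at OD 0.01 in PMG+AL medium with 23 nL pinned compound. Grown 24 h at 30 degrees; viability read by BacTiter-Glo luminescence after 5 min.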
StopGo reporter – lowers the luciferase signal of an FMDV 2A StopGo reporter | human cells with a luciferase reporter of 2A StopGo recoding; control for the full effect not named in the record | Potency, µM (doses to about 57.9 µM), for the others: at the top dose signal change, negative = less light | 410,000 compounds, 1.2% hits | AID 1159524; active = well fitted falling curve with a large enough effect; inconclusive = small, poorly fitted or top-dose-only effect; inactive = no such curve, though single readings can be large or run the other way; tested in HEK293T cells; note: % is set by controls: 0 for no effect and ±100 for the full control effect; nearly all actives have a fitted effect of over 45% in size; luciferase light after 4 h
Marburg entry inh – blocks Marburg virus binding to or entry into cells; Marburg virus pseudotyped entry inhibition, cell reporter; control for the full effect not named in the record; about a third of the inactives were read at about 46 µM; Potency, µM (doses to about 37.8 µM), for inactives: at the highest dose activity change, negative = inhibition, usual class: inhibitors; 300,000 compounds, 1.8% hits; active = well fitted inhibition curve with a large enough effect; inconclusive = small, poorly fitted or top-dose-only effect, or effect the other way; inactive = flat fitted curve, though single readings scatter; tested in HEK293 cells; about a fifth of its hits are not listed in these tables; note: % is set by controls: 0 for no effect and ±100 for the full control effect; luciferase read-out
Cruzain inh Det – cruzain (T. cruzi) inhibition with detergent; P25779; purified cruzain, Z-FR-AMC fluorescence, 0.01% Triton; Potency, µM, inactives show max response, negative = inhibition, actives largely listed as inhibitors; 200,000 compounds, 0.43% hits; AID 1478;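 note: plate controls were neutral wells for no effect and buffer without enzyme for full effect; nearly all actives have a fitted effect of over 40% in size; top concentration of the series not given in the record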
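Detergent-containing run (0.01% Triton X-100) in acetate buffer pH 5.5 with 5 mM DTT: enzyme at 1.5 nM final, 15 min compound preincubation at room temperature, then 2 uM Z-FR-AMC substrate. Activity taken as 60 s fluorescence increase at 360/450 nm.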
An asterisk follows results filed as active; u = inconclusive; x = not tested or not shown; & = joins results of further samples; [ ] = dose if it differs, or a comment. Unless noted, calls come from the whole dose curve; as a rule, active = well fitted curve in the direction sought with a large enough effect; inconclusive = small, poorly fitted or top-dose-only effect, or another doubt; inactive = no such curve, though single readings can be large; an effect the other way counts as inactive or inconclusive. Potency is the fitted concentration of half-maximal effect.

SMILES | SARS PLpro yeast | NS1 function inh | Cruzain noTriton | Lassa entry inh | RE007 growth inh | StopGo reporter | Marburg entry inh | Cruzain inh Det
O=C(CCn1c2c(c3ccccc31)CCCC2)NNC(=O)c1ccc(Cl)c([N+](=O)[O-])c1 | -3% | 8% | u | -4% | 8% | 3% | -9% | -0.7%
CC(=O)Nc1ccc(S(=O)(=O)N2CCC(NC(=O)C(Cc3cccn3C)NC(C)=O)CC2)cc1 (stereo not drawn) | -9% | 8% | 0% | 26% | -4% | -16% | 5% | 3.0%
O=C(OC1CCCCC1=O)c1cc(S(=O)(=O)N2CCOCC2)ccc1F (stereo not drawn) | u | 3% | x | 16%[46.1 µM] | -16% | -24% | -1%[46.1 µM] | x
COc1cccc(/C=C2/C(=O)NN(c3ccc(Br)cc3)C2=O)c1O | 0% | -47% | x | x | 26% | 26% | x | x
CCC(=O)Nc1sc(Cc2ccccc2)c(C)c1C(N)=O | -5% | -75% | x | 7% | -5% | u | -26%[46.1 µM] | x
CCOC(=O)CNC(=O)Cn1cnc2c(cnn2-c2ccc(C)cc2)c1=O | -4% | 4% | x | 19% | 8% | -14% | -27% | x
Cc1ccc(S(=O)(=O)N2CCOCC2)cc1NC(=O)COC(=O)C1=COCCO1 | 0% | x | x | 4% | 8% | -20% | u | x
CCCCC(CC)C1OCC(CN2CCCC2)O1 (stereo not drawn) | 0% | 4% | 2% | 8% | 3% | 17% | 1% | 3.4%
CCCCn1c(=O)c(CCC(=O)OCC(=O)Nc2ccc(C)c(Cl)c2)nc2ccccc21 | 6% | 2% | 28% | x | x | x | 5% | -9.1%
COc1ccc(NC(=O)/C=C\C(=O)N(c2ccc(C(C)C)cc2)C(C(=O)NCc2ccco2)c2ccc(F)cc2)cc1 (stereo not drawn) | x | x | 13% | u | x | 0% | x | -0.1%
CN1CCN(c2ccccc2NC(=O)c2cc(Br)ccc2Cl)CC1 | 1% | -1% | -15% | 11% | -3% | 0% | u | 0.5%
CCCOc1cc(C)c(S(=O)(=O)n2nnc3ccccc32)cc1C | 1% | -1% | -13% | 8% | 10% | 8% | -3% | -2.4%
O=C(O)CCCC(=O)Nc1cc([N+](=O)[O-])ccc1O | 0% | -3% | x | -7% | -3% | 1% | 19% | x
Cc1ccc(C(=O)N/N=C/c2ccc3c(c2)OCO3)o1 | -7% | -4% | -3% | u | -8% | 68%[activator] | 5% | -10%
CC(C)c1ccc(Nc2ncccc2C#N)cc1 | 1% | -16% | 5% | u | -1% | 39%[activator] | 7% | -9.9%
Cn1c(=O)c2c(nc(CN3CCC(C(N)=O)CC3)n2CCc2ccccc2)n(C)c1=O | 2% | -7% | 7% | 18% | 18% | 0% | 2% | 0.6%
CCc1cccc(NC(=O)CCC(=O)O)c1 | 6% | -6% | 17% | 8% | 1% | u | -1% | 0.0%
COc1ccc(N2CCN(C(=O)COC(=O)Cc3c(F)cccc3Cl)CC2)cc1 | -3% | x | x | -12% | -18% | 0% | 18% | x
c1ccc(-c2onc3c2CCCC3)cc1 | -8% | -22% | 9% | -15% | -17% | 0% | 1% | -1.6%
Cc1onc(-c2ccc(Cl)cc2)c1-c1ccnn1S(=O)(=O)c1ccc(Cl)cc1 | 1% | 2% | x | u | -12% | -22% | u | x
COc1cccc(/C=N/NC(=O)c2ccc(=O)[nH]n2)c1O | 1% | 1% | x | x | 17% | 61%[activator] | x | x
Cc1ccc(-c2csc3ncnc(N4CCN(C(=O)c5ccco5)CC4)c23)cc1 | -1% | x | x | u | 10% | u | -30% | x
CCCC(c1nnnn1CS(=O)(=O)c1ccc(C)cc1)N1CCN(CC)CC1 (stereo not drawn) | 0% | -3% | x | -21%[46.1 µM] | 19% | 4% | u | x
CCC(=O)OCCn1c(=O)c2cc3c(=O)n(CCOC(=O)CC)c(=O)c3cc2c1=O | 0% | -8% | 28% | 14% | -1% | 0% | 11% | 7.2%
Cc1ccc(Oc2ccc(OCC(=O)NC3CCS(=O)(=O)C3)cc2)cc1 (stereo not drawn) | 2% | -3% | x | u | 3% | u | u | x

Additional results
SMILES | SARS PLpro yeast | NS1 function inh | Cruzain noTriton | Lassa entry inh | RE007 growth inh | StopGo reporter | Marburg entry inh | Cruzain inh Det
CC(C)c1ccc(NC(=O)c2ccc(F)c(S(=O)(=O)N3CCCC3)c2)cc1 | x | x | 4% | -28%[46.1 µM] | x | -24% | x | 0.7%
CCC1CCCCN1CCCNC(=O)COc1cc(=O)n(C)c2ccccc12 (stereo not drawn) | -4% | 2% | 6% | 0% | 6%[3.69 µM] | 6% | -21% | 1.5%
Cc1nc2nc(SCC(=O)c3cccc([N+](=O)[O-])c3)[nH]c2cc1Br | 3% | u | u | 28% | 0% | 12% | 3% | -9.9%
CCCc1cc(=O)oc2cc(C)cc(OC(C)C(=O)NCCCn3ccnc3)c12 (stereo not drawn) | 4% | -7% | x | 23%[46.1 µM] | -14% | 5% | u | x
CC1(C)SC2c3ccccc3C(=O)N2[C@@H]1C(=O)NCc1ccco1 (stereo partly drawn) | 7% | 2% | -28% | -5% | 9% | -8% | 1%[46.1 µM] | u
N#CC(C(=O)NCc1ccco1)c1nc2ccccc2nc1N1CCOCC1 (stereo not drawn) | -11% | -103% | u | -15% | -28% | -24% | 1% | -4.6%
COC(=O)c1ccccc1NC(=O)C1CCCCC1C(=O)O (stereo not drawn) | 2% | 5µM* | -7% | -1% | -2% | 4% | 19% | -0.3%
NC(=O)C1Cc2ccccc2CN1S(=O)(=O)c1ccc(Cl)s1 (stereo not drawn) | -4% | 18% | x | 0% | -17% | -10% | 3%[46.1 µM] | x
Cc1ccc(-c2noc(CNCCCN(C)C)n2)cc1 | 5% | -4% | -5% | u | 11% | 3% | 9% | -0.6%
Cc1c(/C=N/O)c2ccccc2n1C | 9% | 8% | -3% | 12% | 0% | -2% | 3% | -3.3%
CSc1nc2ccccc2n1CC(=O)Nc1ccccc1 | 0% | 12% | 12% | 0% | 5% | -11% | 9% | -4.5%
O=C(CCC(=O)N1CCSc2ccccc21)NCc1cccc(Cl)c1 | u | -59% | x | x | -4% | -5% | x | x
CCOC(=O)CSc1nc2ccccc2n1C(=O)OCC | 8% | -60% | 10% | 4% | 10% | -8% | 6%[46.1 µM] | -0.6%
O=C(CN1CCc2cc3c(cc2C1)OCCCO3)Nc1cccc([N+](=O)[O-])c1 | -9% | 10% | x | x | 1% | -2% | x | x
N/C(=N\OC(=O)CCc1ccccc1)c1ccccc1Cl | 0% | x | x | u | -4% | 44%[activator] | -21%[46.1 µM] | x
CCOP(=O)(OCC)C(Nc1cccc(C)c1)c1ccc(F)cc1 (stereo not drawn) | -4% | -4% | u | 5% | x | -22% | -20% | -2.6%
CCc1ccc2oc(-c3cc(NC(=O)c4cc([N+](=O)[O-])ccc4N4CCOCC4)ccc3Cl)nc2c1 | x | x | u | 1%[46.1 µM] | x | 32%[activator] | u | -0.6%
S=c1[nH]nc(-c2ccccn2)n1/N=C/c1ccco1 | -1% | 11% | x | 1% | 12% | -8% | -3% | x
CCOc1ccc(C(=O)OCc2cc(=O)n3nc(C4CC4)sc3n2)cc1 | x | x | -2% | 12%[46.1 µM] | x | -13% | x | 0.1%
Cc1cccc(-n2c(C)nc3ccsc3c2=O)c1 | x | x | x | 11% | 10% | 0% | -3%[46.1 µM] | x
Oc1ccc(-c2cnc(-c3ccc(O)cc3)nc2)cc1 | -5% | -9% | x | 3.2µM* | 3% | u | 1.1µM* | x
CC[C@@]12C(=O)N(c3cccc(F)c3)C(=O)N1[C@H](c1cccc(C)c1)[C@@H]1C(=O)N(Cc3ccccc3)C(=O)[C@@H]12 | -2% | 9% | x | x | 7% | -14% | x | x
O=c1c2ccccc2[nH]c(=S)n1-c1ccc2c(c1)OCO2 | 6% | 10% | -5% | 7% | 6% | 19% | -25% | 3.4%
COc1ccc(-c2n[nH]c(=S)n2N)c(OC)c1 | 2% | x | x | 11% | 6% | -14% | 13% | x
Cc1noc(/C=C/N(C)C)c1S(=O)(=O)N1CCCC(C(=O)NCCC2=CCCCC2)C1 (stereo not drawn) | 3% | u | x | x | 0% | 0% | x | x

New compounds follow:
SMILES | SARS PLpro yeast | NS1 function inh | Cruzain noTriton | Lassa entry inh | RE007 growth inh | StopGo reporter | Marburg entry inh | Cruzain inh Det
CCc1ccc(N=CC2=C(O)CC(c3ccco3)CC2=O)cc1 (stereo not drawn) | -5% | -59% | -6% | -24% | -18% | 7% | u | -9.8%
Cn1c(=O)c(=O)n(C)c2cc(N3CCOCC3)c(NS(=O)(=O)c3ccc(F)c(Cl)c3)cc21 | -1% | 4% | 3% | -5%&8%[46.1 µM] | 2% | 3%&-14% | -10%&-10%[46.1 µM] | -5.1%
O=P1(O)C=C(c2ccccc2)NC(c2ccccc2)=C1 | -1% | -1% | 5% | 2% | 20% | -2% | -2% | 4.1%
CCN(CC)c1ccc(C(=O)N2CCC(c3c[nH]c4ccccc34)(c3c[nH]c4ccccc34)CC2)cc1 | x | x | 10µM* | u | x | 6% | -22%[46.1 µM] | -1.6%
O=C(O)CCCC(=O)Nc1cccc(C(F)(F)F)c1 | 0% | -6% | -4% | 9% | 7% | 7% | 9% | 2.1%
Cc1ccc(C)c(N2CCN(C(c3ccc(N(C)C)cc3)c3nnnn3C(C)(C)C)CC2)c1 (stereo not drawn) | 5% | 3% | 11% | -16% | 6% | u | -10% | -4.8%
COC(=O)N/N=C/c1ccc(OC(=O)/C=C/c2ccco2)cc1 | 0% | -1% | x | 16%[46.1 µM] | -12% | 6% | 3%[46.1 µM] | x
Cc1cc(NC(CC(C)C)C(=O)O)nc(Cc2ccccc2)n1 (stereo not drawn) | 4% | 4% | -9% | 1% | -14% | -4% | 22% | 0.0%
Cc1nn(CC(=O)NCCCN2CCC(N3CCCCC3)CC2)c(=O)c2cc(-c3ccccc3)nn12 | -6% | -3% | x | x | -9% | 9% | x | x
Cc1ccc(C)c(CSc2nc3ccncc3n2CC(=O)Nc2ccc(N(C)C)cc2)c1 | x | x | -30% | -10%[46.1 µM] | x | -27% | -23%[46.1 µM] | -8.9%
